Compound activity: PubChem, several laboratories
BJeLR viability: kills HRASV12-expressing BJeLR cells | BJeLR (HRASV12) viability, CellTiter-Glo ATP luminescence, 48 h; reference of the scale not given here | inhibition, % (no concentration beside the values) | 300,000 tested, 0.17% active | AID 1554;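 active = replicate mean above 50%; inconclusive = above 50% but judged a plate artefact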;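 note: 50 nL library stock added to about 25 µL; numbers are from one replicate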
PrP UTR inh: inhibition of PrP 5' UTR reporter expression. cell-based PrP 5' UTR mRNA reporter, plate reader. inhibition, % (test concentration not listed). 340,000 tested, 0.35% active. AID 488862;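 active = every replicate at 50% or more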;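 note: 0 = median of the neutral control wells; tested in H4 reporter cells; numbers are from one replicate; inactives centre near -14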
Sa RN4220 lethal: kills Staphylococcus aureus RN4220 | S. aureus RN4220 growth, OD600, 16 h | inhibition, % (no concentration beside the values) | 330,000 tested, 0.33% active | AID 1259311;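 active = z-score of -3 or lower and OD600 up to 0.18 on both plates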;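 note: plate controls were untreated cells for no effect and reference antibiotic for full effect; stock transfer was 100 nL into about 80 µL; one replicate is shown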
Sa ugtP lethal: compounds lethal to S. aureus RN4220 ugtP deletion mutant | 330,000 tested, 0.54% active | OD600 growth, 16 h; some inactives read as strong as hits | growth inhibition, % (no concentration beside the values);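 active = z-score under -3 and OD600 up to 0.15 on both plates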;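 note: plate controls were untreated wells for no effect and antibiotic for full effect; wells of about 80 µL received 100 nL stock; the first replicate is given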
Mtb hypoxia inh: inhibitors of hypoxia-regulated fluorescent reporter in Mycobacterium tuberculosis; 300,000 tested, 0.1% active; fluorescence inhibition, % (no concentration beside the values); M. tuberculosis hypoxia-regulated fluorescent reporter, fluorescence;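 active = 35 to 45% if threefold the growth effect, above 45% if 1.5-fold the growth effect; inactive = the rest, general growth blockers included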;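 note: wells of about 50 µL received 100 nL stock; 0% = vehicle wells and 100% = reference inhibitor wells; whole bacteria with a GFP reporter of the hypoxia response; strong numbers were not always called active; many hits fall short of the cut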
Autofluor counter: compound fluorescence in toxin protease inhibitor counterscreen; compound autofluorescence counterscreen, microsphere flow cytometry; hits give high values; fluorescence intensity (no concentration beside the values); 360,000 tested, 3.1% active;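 active = at least 3 SD above the mean of all compounds, about 16000 in these data; inconclusive = too few beads counted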;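 note: 100 nL of 1 mM stock went into each well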
Mtb hypoxia inh growth: further read-out of Mtb hypoxia inh, marked with its call; growth inhibition, %; measured here: M. tuberculosis growth (absorbance);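 0% = vehicle and 100% = reference antibiotic; read after six days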
* = called active by the depositor; ? = inconclusive; / = not tested or not shown; & = joins results of further samples.

SMILES	BJeLR viability	PrP UTR inh	Sa RN4220 lethal	Sa ugtP lethal	Mtb hypoxia inh	Mtb hypoxia inh growth	Autofluor counter
CN1CCNC(=O)C1CC(=O)N1CC=C(c2ccc(F)cc2)CC1 (configuration not stated)	-7.6	8.6	2.2	0.0	1.4	-1.9	2074
CNC(=S)NNC(=O)Cc1ccccc1	4.5	-21.6	2.7	7.3	1.9	2.9	8583
O=[N+]([O-])c1ccccc1N/N=C1\CCc2ccccc21	4.1	-69.1	/	/	/	/	4278
Cc1ccc(C)c(OCC(=O)Nc2c[nH]c(=O)[nH]c2=O)c1	2.4	29.6	4.6	4.2	5.0	5.3	2068
C=CCn1c(CNC(=O)c2ccco2)nnc1SCC(=O)Nc1cccc(F)c1	2.0	-16.3	12.3	2.8	7.9	9.4	4602
Nc1cc[n+](CC(=O)Nc2ccccc2)cc1	-2.0	0.1	1.9	-4.6	-10.2	-5.2	4143
Cc1csc(NC(=O)CCC(=O)N(CC(=O)NC2CCCC2)Cc2ccccc2)n1	-2.7	-3.3	2.5	8.0	2.9	3.6	6339
CCCCC(=O)N1CC=CC(c2ccc(OC)cc2)N(Cc2ccc(F)cc2)C(=O)C1C (configuration not stated)	/	/	3.9	8.8	7.4	-12.6	/
O=C(O)CCC(=O)NCc1c(Cl)cccc1Sc1ccc(Cl)cc1	6.8	/	5.8	5.8	18.0	3.5	4294
Cc1cc(N)n2ncc(-c3ccc(Cl)cc3)c2n1	-6.2	-63.2	3.1	7.7	-3.8	8.6	4268
COc1ccccc1/C=C\C(=O)NCC(=O)NN=Cc1cccc(OC)c1O	/	/	6.8	-10.1	9.6	4.8	/
COc1ccc2c(C)cc(SCc3c(C)noc3C)nc2c1	6.8	-28.5	10.7	-4.8	5.0	15.3	22377*
CN(c1ccccc1)S(=O)(=O)c1ccc(Cl)c(C(=O)Nc2ccc(-c3nc4ccccc4[nH]3)cc2)c1	9.0	-19.5	-2.2	-7.7	-3.5	1.0	2513
CC(Oc1ccc2ccccc2c1)C(=O)N/N=C/c1cccnc1 (configuration not stated)	5.4	-15.0	/	/	/	/	3963
CC(C)C(=O)Nc1nnc(COc2ccc(Cl)cc2)s1	0.5	-33.8	4.9	-3.6	8.3	-2.6	6169
O=C(NCC1CCCO1)C1CCC(CNS(=O)(=O)c2ccccc2)CC1 (configuration not stated)	-6.6	-6.5	21.4	10.3	-15.3	-4.7	2789
COc1ccc(-c2nc(=S)c3c(n2CCN2CCOCC2)CC(C)(C)OC3)cc1	-3.3	-15.4	-0.2	-4.6	/	/	2653
CCC1=Nc2ccccc2NC2=C1C(=O)CCC2	-0.3	-22.6	-2.5	-4.2	/	/	1952
CCOc1ccc(C=NNC(=O)CC(=O)NCc2ccccc2)cc1	/	/	4.5	5.2	1.2	-2.5	/
O=C(N/N=C/c1cn(-c2cccs2)nc1-c1ccccc1)c1ccccc1O	-17.2	3.3	/	/	/	/	2068

Three of these compounds, set out differently.
Compound,BJeLR viability,PrP UTR inh,Sa RN4220 lethal,Sa ugtP lethal,Mtb hypoxia inh,Mtb hypoxia inh growth,Autofluor counter
Nc1cc[n+](CC(=O)Nc2ccccc2)cc1,-2.0,0.1,1.9,-4.6,-10.2,-5.2,4143
Cc1csc(NC(=O)CCC(=O)N(CC(=O)NC2CCCC2)Cc2ccccc2)n1,-2.7,-3.3,2.5,8.0,2.9,3.6,6339
CCCCC(=O)N1CC=CC(c2ccc(OC)cc2)N(Cc2ccc(F)cc2)C(=O)C1C (configuration not stated),/,/,3.9,8.8,7.4,-12.6,/

Next compounds
SMILES	BJeLR viability	PrP UTR inh	Sa RN4220 lethal	Sa ugtP lethal	Mtb hypoxia inh	Mtb hypoxia inh growth	Autofluor counter
COc1cccc(C(=O)NC(=S)Nc2ccccc2N2CCOCC2)c1	4.8	-17.6	1.9	32.2	15.3	8.3	5497
CN(C)/C=C/C(=O)c1cc(F)cc(C(F)(F)F)c1	2.1	-11.6	3.9	5.8	0.5	6.7	2625
Cc1ccc(S(=O)(=O)/N=C2\SC(CC(=O)Nc3ccc(F)cc3)C(=O)N2c2ccccc2)cc1 (configuration not stated)	-6.6	-13.4	/	/	/	/	1987
Cc1nn(CC(=O)NC2CC2)c(C)c1S(=O)(=O)NC(C)(C)C	/	-4.5	4.0	-0.4	9.7	9.4	4173
Cc1cc(NC(=O)c2ccco2)ccc1NC(=O)c1ccco1	19.5	-20.2	5.0	5.3	12.3	0.6	5831
COc1ccc2c(c1)C(NC(=O)C(F)(F)F)CC2=O (configuration not stated)	1.7	-28.9	2.6	1.7	9.3	13.9	5795
CC1COC(=O)C(Cc2ccc(F)cc2)CC=CCC(CC(=O)NC(CO)Cc2ccccc2)C(=O)N1 (configuration not stated)	/	/	4.1&4.0&8.2	2.8&1.8&-2.3	11.1&-1.3&2.8	15.1&2.2&5.4	/
Cc1ccc(C(=O)OCC(=O)N2CCC(c3ccccc3)=N2)cc1	/	-32.8	12.8	-0.4	10.6	15.4	3577
O=S(=O)(c1ccc(Cl)cc1)c1ccc(Cl)cc1	/	-17.9	3.1	-0.6	16.5	12.1	6028
COc1ccc(CCNC(=O)CSc2cn(Cc3cccc(C)c3)c3ccccc23)cc1OC	5.2	-11.4	-1.5	-11.5	5.6	10.8	6311
COc1ccc(-c2cn3cc([N+](=O)[O-])ccc3n2)cc1OC	0.0	-35.5	11.4	4.6	5.9	10.3	7434
COc1ccccc1C(=O)OCC(=O)NC(=O)NCc1ccccc1	-7.8	2.0	6.2	-1.8	7.9	6.9	2011
CN(C)c1ccc(Nc2ccc([N+](=O)[O-])cn2)cc1	1.5	-68.0	-0.5	3.9	1.8	-7.4	3268
CCSc1ccccc1C(=O)N1CCN(Cc2ccc3c(c2)OCO3)CC1	-4.4	-30.6	-1.1	23.8	4.2	-0.5	22336*
CCCN1CCN(S(=O)(=O)c2ccc3c(c2)CCC(=O)N3)CC1	/	-10.7	7.3	3.1	-2.7	2.0	3895
O=c1cc(-c2ccccc2)[nH]c2ccccc12	18.1	10.5	6.3	-0.1	6.4	11.0	3098
CNC(=O)c1cc(S(=O)(=O)Nc2ccc3c(c2)OCO3)ccc1C	-0.7	-11.6	3.0	5.4	1.1	-0.5	?
O=C(NC1CCCCCC1)c1ccc2nc3cc(Cl)ccc3c(=O)n2c1	12.2	-0.8	-13.3	6.7	-3.0	-4.0	4264
COc1cccc(NC(=O)CN(C)C(=O)c2ccc3c(c2)S(=O)(=O)N=C2CCCCCN23)c1	-11.2	-8.3	0.1	5.4	-2.9	3.4	?
COc1cc2c(C(=O)NCCCN3CCN(c4cccc(Cl)c4)CC3)cn(C)c(=O)c2cc1OC	-9.2	-18.5	-1.4	-0.4	3.3	19.5	3972
Cc1ccc(SCC(=O)NCCCc2ccccc2)cc1	14.4	2.5	-2.2	3.0	9.3	4.8	3430
O=C1/C(=C/Nc2ccc3c(c2)OCO3)CCc2ccccc21	23.7	30.0	-10.0	3.8	6.8	16.4	2562
CCc1nnc(NC(=O)CN2C(=O)CCC2=O)s1	7.2	-26.4	1.8	3.8	-7.4	16.1	1915
CCOc1ccc(S(=O)(=O)Nc2ccc(C(=O)NCC3(N4CCCCC4)CCCCC3)cc2)cc1	-7.3	0.9	-1.8	-4.9	-21.2	2.0	/
O=C1CC(Cc2ccc(Br)cc2)C(=O)N1c1ccccc1 (configuration not stated)	-4.0	1.0	4.0	3.5	6.9	0.8	/
COC(=O)Oc1ccc(/C=N/NC(=O)CSCc2ccccc2Br)cc1OC	9.1	1.2	/	/	/	/	2416
CCC(C(=O)N/N=C/c1cccnc1)c1ccccc1 (configuration not stated)	2.3	-19.3	/	/	/	/	?
COc1ccc(S(=O)(=O)/N=C2/NC(=O)/C(=C/c3ccco3)S2)cc1	4.0	-14.0	4.1	-9.2	3.1	-2.1	2800
CCOC(=O)N1CCN(c2cc(C)c(C(C)=O)cc2F)CC1	-8.9	-19.0	8.6	-5.1	2.4	7.4	10101
Cc1cccc(N(CC(=O)N2CCCCCC2)S(C)(=O)=O)c1C	6.7	-22.1	3.8	5.2	-3.8	-4.5	3213
COc1ccccc1C(=O)Nc1ccc(Oc2nnc(-c3ccc(C)cc3)c3ccccc23)cc1	-9.8	-11.3	-0.6	-8.9	-12.1	-6.5	2398
O=C(NNC(=O)C(Cl)Cl)c1cnn(-c2ccccc2)c1C(F)(F)F	-11.3	-41.7	-3.5	-7.2	-3.2	-5.0	5734
Cc1ccc(OCC(=O)N/N=C\c2cn(Cc3ccccc3)c3ccccc23)cc1C	-17.2	-43.7	/	/	/	/	9468
Cc1ccc(-n2cccc2C(=S)N=P(N(C)C)(N(C)C)N(C)C)cc1	-9.7	-13.8	2.0	-4.7	11.5	23.8	10685
CC(C)(C)Sc1ccc(N)nc1	0.9	-9.5	1.7	0.4	/	/	3909
COc1cccc(NC(=O)CSc2nnc(CNC(=O)c3ccccc3)n2C)c1	-4.5	-60.2	-1.7	1.9	3.9	14.3	7668
Cc1nc2ccccn2c1C(=O)NN=Cc1ccc([N+](=O)[O-])cc1	/	/	2.0	5.6	15.5	11.6	/
Cc1ccc(S(=O)(=O)N(C)C)cc1NC(=O)CN1C(=O)NC2(CCCc3ccccc32)C1=O (configuration not stated)	5.5	-14.5	2.5	-1.6	-3.6	-0.3	2498
Cc1ccc(C)c(NC(=S)N(CCN(C)C)C(C)c2ccccn2)c1 (configuration not stated)	2.0	-11.2	4.7	5.9	8.5	4.5	4151
COCCn1c(C)cc(C(=O)CSc2ncn[nH]2)c1C	4.1	-14.4	5.3	4.7	0.5	1.9	7916
CCCNC(=O)C(=O)Nc1ccc2c(c1)N(S(=O)(=O)c1cccs1)CCC2	20.0	-17.0	4.1	-14.1	-11.0	-9.3	5573
O=C(OCCN1CCCC1=O)c1cc(F)c(F)c(F)c1F	9.4	-7.9	4.7	-2.4	2.5	-3.5	6939
CCOc1ccc(NC(=O)COc2ccccc2C(=O)NCc2ccccc2)cc1	/	8.2	2.5	-1.9	-6.9	-1.8	2872
CCC(Sc1nc2ccccc2o1)C(=O)O (configuration not stated)	1.9	-21.4	3.3	2.1	-12.9	-15.3	4822
O=C(COCc1cc(-c2ccc3c(c2)OCO3)on1)N1CCN(c2ccccc2)CC1	1.2	-13.2	/	/	/	/	5331
COc1ccc(-c2csc(-c3cc4ccccc4oc3=N)n2)cc1	-1.7	6.0	7.3	5.6	2.8	7.0	2740
O=C(CCN1C(=O)/C(=C/c2cccs2)SC1=S)Nc1cccc(C(=O)O)c1	-0.8	-17.3	1.9	-1.6	9.7	10.1	3952
Cc1ccccc1NC(=O)c1ccc(Cl)c(NC(=O)c2cccnc2)c1	1.5	/	4.2	0.3	4.4	10.0	/
CCOc1cc(/C=N/NC(=O)C(N)=O)cc(Br)c1O	-2.6	-14.3	/	/	/	/	1991
Cc1ccccc1N(C(=O)c1ccco1)C(C(=O)NC1CCCC1)c1cccnc1 (configuration not stated)	1.4	-2.9	0.3	7.8	-1.1	4.1	3604
CC1(C)CC(=O)C(C(O)c2cccc([N+](=O)[O-])c2)C(C)(C)N1 (configuration not stated)	3.7	-22.6	2.7	2.7	5.4	-5.5	4176
O=C(CN(C(=O)CCC(=O)Nc1ccccn1)c1ccc(F)cc1)NCCc1ccccc1	-0.7	-22.8	2.4	-2.4	11.1	0.1	3817
CCOc1cc(C(=O)CSc2nnc(CNc3ccc(Cl)cc3)o2)ccc1NC(=O)CC	2.4	-9.4	5.5	-6.6	12.7	8.8	12167
CCc1cc2c(=O)[nH]c(CC(N)=O)nc2s1	5.5	-17.8	-0.6	-0.5	9.6	6.4	3651
COc1ccc(Cc2noc(CN(C)Cc3ccc(-n4cccn4)cc3)n2)cc1OC	4.1	-16.4	1.8	9.8	5.1	-9.3	4602
COc1ccc(C2/C=C\CN(C(=O)Oc3ccc(C(F)(F)F)cc3)CC(=O)N2Cc2ccc(F)cc2)cc1 (configuration not stated)	-1.2	-4.0	/	/	/	/	2945
CSc1c(CC(=O)NCCCO)n(Cc2ccccc2)c2ccccc12	-9.0	-38.7	6.4	4.2	-11.7	-4.0	3110
CCN(c1ccc(NC(=O)CSc2ccc3c(c2)OCCO3)cc1)C(C)C	/	-10.7	2.9	5.0	4.5	-1.7	2918
O=S(=O)(Cc1ccccc1Cl)c1ncn[nH]1	-6.5	/	-1.0	-4.6	-3.7	-1.0	6250
Cc1ccc(C)c(NC(=O)CN(C)C(=O)c2ccccc2OCc2ccccc2Cl)c1	4.1	-31.1	6.0	-1.6	-0.8	3.4	5466
